VDR inhibitor – blocks the human vitamin D receptor; P11473; VDR-SRC2-3 peptide fluorescence polarization, 2 h; Potency, µM, for the others: max response, negative = inhibition, hits mostly inhibitors; 400,000 compounds, 0.93% hits; AID 504847; active = well fitted inhibition curve with a large enough effect; inconclusive = small, poorly fitted or top-dose-only effect, or another doubt; inactive = no such curve, though single readings can be large or run the other way; note: series mostly up to about 120 µM
Target sequence (P11473 whole entry, looked up): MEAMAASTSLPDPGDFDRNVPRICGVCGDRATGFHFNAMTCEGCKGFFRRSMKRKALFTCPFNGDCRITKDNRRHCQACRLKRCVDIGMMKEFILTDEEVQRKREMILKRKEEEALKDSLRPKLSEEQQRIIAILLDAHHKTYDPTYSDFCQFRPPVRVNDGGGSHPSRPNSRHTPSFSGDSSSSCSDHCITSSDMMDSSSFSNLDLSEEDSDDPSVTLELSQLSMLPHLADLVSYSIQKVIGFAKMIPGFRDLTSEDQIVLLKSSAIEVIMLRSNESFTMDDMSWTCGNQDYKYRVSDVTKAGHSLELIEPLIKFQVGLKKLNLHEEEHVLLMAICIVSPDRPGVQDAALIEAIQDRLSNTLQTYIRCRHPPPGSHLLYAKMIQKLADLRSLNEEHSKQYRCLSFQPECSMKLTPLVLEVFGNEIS
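Compounds are added to VDR with labelled SRC2-3 coactivator peptide and held 2 h at room temperature. Inhibition of the VDR–peptide interaction is then read as a change in fluorescence polarization.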
Numbers without * were called inactive; ? = inconclusive; & = joins results of further samples; [ ] = remark or other dose. % is set by controls: 0 for no effect and ±100 for the full control effect; potency is the fitted concentration of half-maximal effect. Some of the compounds tested. The share of hits here may be higher or lower than overall.

SMILES | VDR inhibitor
CN1CCN(C(=O)/C(=C/c2ccccc2)c2ccccc2)CC1 | -16.0%
Cc1ccc2oc(=O)c3cnn(CC(=O)NC4CCCCC4C)c3c2c1 (configuration not stated) | -16.3%
O=C(Nc1ccc(F)cc1F)c1ccc2nc(N3CCOCC3)sc2c1 | -13.6%
Cc1cc(C)nc(SCC(=O)N2CCc3ccccc32)n1 | 33.6%[activator]
Nc1cc(Cl)cc2c1-c1ccc(Cl)cc1C2O (configuration not stated) | -0.5%
COc1ccc(CN2CCC(N3CCC(C(=O)N4CCOCC4)CC3)CC2)c(F)c1 | 19.7%
O=S(=O)(Nc1ccccc1)c1ccc2c(c1)CCO2 | -11.6%
Cc1ccc(CSc2nnc(-c3ccncc3)n2CC2CCCO2)cc1 (configuration not stated) | -3.0%
CCC(C)[C@H](N)c1nnc(SCC(=O)Nc2ccc(C)cc2C)o1 (some centres not stated) | 5.1%
Cc1ccc(/C=C2/Sc3ccc(C(=O)N4CCN(C)CC4)cc3NC2=O)cc1 | 4.9%
Cc1ccccc1Cn1c(=O)n(CC2CCC(C(=O)NCCc3ccccc3)CC2)c(=O)c2ccccc21 (configuration not stated) | -5.3%
CC(c1ccc2c(c1)OCO2)n1c(=S)[nH]c2ccccc2c1=O (configuration not stated) | 3.4%
CC(=O)c1cccc(NC(=O)c2cc(-c3ccc(C)cc3)on2)c1 | -8.8%
COc1cc2c(cc1OC)-c1nnc(-c3ccco3)n1C1(CCCC1)C2 | -2.8%
Cc1cccc(NC(=S)NCCc2ccc(Cl)cc2)c1C | -6.9%
CCCNC(=O)c1cc(-c2ccc(OC)cc2)n(CCCOC)c1C | -28.6%
COc1cccc(C(=O)NCCCN2CCN(CCCNC(=O)c3cccc(OC)c3)CC2)c1 | 7.1%
Nc1nnc(SCC(=O)Nc2sc3c(c2C(=O)c2ccccc2)CCCC3)s1 | -7.2%
Cc1ccc(-n2nc3c(=O)n(CCCC(=O)NCc4ccco4)nc(C)c3c2C)cc1 | 8.4%
Cc1ccccc1OCCn1c(CCNC(=O)C2CCCCC2)nc2ccccc21 | -5.7%&10.5%
CC[C@@H]1Cc2cc(O)ccc2C2=C1c1ccc(O)cc1C[C@H]2CC | ?
CCc1ccc(OCc2cc(=O)n3cc(C)sc3n2)cc1 | 2.6%
COC(=O)C1=C(C)NC(C)=C(C(=O)OCCN(C)Cc2ccccc2)[C@H]1c1cccc([N+](=O)[O-])c1 | 5.0%
Cc1ccc(S(=O)(=O)N2CC3CCC2C3)cc1 (configuration not stated) | 2.3%

An excerpt of these results, as labelled records:
Cc1ccc(-n2nc3c(=O)n(CCCC(=O)NCc4ccco4)nc(C)c3c2C)cc1
  VDR inhibitor: 8.4%

Cc1ccccc1OCCn1c(CCNC(=O)C2CCCCC2)nc2ccccc21
  VDR inhibitor: -5.7%&10.5%

COc1cccc(C(=O)NCCCN2CCN(CCCNC(=O)c3cccc(OC)c3)CC2)c1
  VDR inhibitor: 7.1%

Sorted by formula weight (smallest number first): some entries from above
SMILES | VDR inhibitor
CCc1ccc(OCc2cc(=O)n3cc(C)sc3n2)cc1 | 2.6%
CCCNC(=O)c1cc(-c2ccc(OC)cc2)n(CCCOC)c1C | -28.6%
COc1cc2c(cc1OC)-c1nnc(-c3ccco3)n1C1(CCCC1)C2 | -2.8%
Nc1nnc(SCC(=O)Nc2sc3c(c2C(=O)c2ccccc2)CCCC3)s1 | -7.2%
COc1cccc(C(=O)NCCCN2CCN(CCCNC(=O)c3cccc(OC)c3)CC2)c1 | 7.1%

Next section.
SMILES | VDR inhibitor
C[C@H](CO)N1C[C@H](C)[C@H](CN(C)Cc2ccc(-c3ccccc3)cc2)Oc2ccc(NS(=O)(=O)c3ccccc3)cc2CC1=O | -10.5%
CCOC(=O)C1(CC2CCCCO2)CCN(S(=O)(=O)c2cccc(F)c2)CC1 (configuration not stated) | -6.8%
CCC(=O)NC(c1ccc(C)cc1)c1ccc2cccnc2c1O (configuration not stated) | 13.8%
COc1cc(OC)c(N(C)C(=O)C2CCCN(c3ncnc4c3nc3n4CCCCC3)C2)cc1Cl (configuration not stated) | 15.4%
COc1cc(CNc2nnnn2C)cc(OC)c1OC | -4.6%
Cc1cc(C(F)(F)Cl)n2ncc(-c3ccccn3)c2n1 | -19.3%
COc1ccc(-n2c(O)cnc2Nc2nc(C)cc(C)n2)cc1OC | 5.9%
COc1ccc(CC(=O)NNC(=O)CSc2nc(C)c(C)c(=O)[nH]2)cc1 | -0.5%
COCCn1cc(C(=O)c2cc(Br)ccc2O)cc(C#N)c1=O | -7.3%
Cc1cnc(C(=O)NCCc2ccc(C(F)(F)F)cc2)cn1 | 2.5%
O=C(c1ccncc1)N1CCC2(CCCN(c3ccccn3)C2)CC1 | 9.2%
Cc1cc(=O)oc2c(C)c(OC(C)C(=O)NCCN3CCOCC3)ccc12 (configuration not stated) | -7.2%
COCC(=O)N1CCC(n2nccc2NC(=O)c2ccccc2OC)CC1 | -11.3%
COc1ccc(-n2c(SCC(N)=O)nc3sc4c(c3c2=O)CCC4)cc1 | -8.5%
CCN(c1cccc(C)c1)S(=O)(=O)c1cc2c(cc1C)n(C)c(=O)c(=O)n2C | 9.8%
CCCCN(C(=O)COc1ccc(C)cc1OC)c1c(N)n(CCC)c(=O)[nH]c1=O | 9.5%
Cc1ccc(C)c(Cn2c3ccccc3c3cnn(CC(=O)NC4CCC(C)CC4)c(=O)c32)c1 (configuration not stated) | 13.7%
NS(=O)(=O)c1cccc(NC(=O)COC(=O)CN2C(=O)C3CC=CCC3C2=O)c1 (configuration not stated) | 8.9%
CSCCC(NC(=O)c1ccccc1Cl)C(=O)NCc1ccncc1 (configuration not stated) | -5.1%
Nc1nc(-c2ccccn2)nc(N)c1Cc1ccccc1F | -6.7%
O=C(c1ccc(S(=O)(=O)Cc2cc(F)ccc2F)c([N+](=O)[O-])c1)N1CCCC1 | ?
O=C(NC(NC1CCS(=O)(=O)C1)C(=O)c1cccs1)c1ccccc1 (configuration not stated) | -7.5%
CC1CN(C(=O)c2ccc(COc3ccc4ccccc4c3)o2)CC(C)O1 (configuration not stated) | -8.2%
COc1ccc(NS(=O)(=O)c2cc(NC(=O)c3cnccn3)ccc2OC)cc1Br | 12.6%
O=C(CCN1CCC(c2cccs2)=N1)c1cccs1 | -13.8%
CC(OCc1ccccc1)C(NC(=O)OC(C)(C)C)C(=O)NC1COC2CC(n3cc(F)c(=O)[nH]c3=O)OC12 (configuration not stated) | -27.0%
Cc1ccc(O)c(C(=O)c2cnc3onc(-c4ccc(F)cc4)c3c2)c1 | -12.8%
CCC(=O)N1CCc2cc(Br)cc(S(=O)(=O)NCc3ccccc3)c21 | 2.2%
c1coc(CNc2c3c(nc4ncnn24)CCC3)c1 | 9.3%
O=C(Nc1nc(-c2ccc(F)cc2)cs1)c1cnccn1 | 1.7%
O=S(=O)(NCC1CCCO1)c1ccc(NS(=O)(=O)c2ccc(F)cc2)cc1 (configuration not stated) | 4.4%
CCOc1ccc(-n2c(=O)cc(N3CCN(c4ccc(F)cc4)CC3)[nH]c2=O)cc1 | -0.7%
Cc1ccc2nc(-c3ccccc3O)c(Nc3ccc4c(c3)OCCO4)n2c1 | -18.9%
CCOC(=O)/C(C#N)=C(\N)C(C)C(=O)Nc1ccccn1 (configuration not stated) | 8.1%
CCOc1ccc(S(=O)(=O)Nc2ccc(Cl)cn2)c(C)c1C | 0.4%
Cc1cc(C)cc(NC(=S)NC(=O)C2CC2)c1 | 3.8%
CC(C)C(OC(=O)c1ccco1)C(=O)NCc1ccco1 (configuration not stated) | -27.5%
CCC(C)N=CC1=C(O)C(C(=O)OC)C(C)(C)CC1=O (configuration not stated) | 19.3%
COCCNC(=O)c1cccc(OC2CCN(Cc3ccccc3OC(F)F)CC2)c1 | 4.1%
CC(=O)c1cccc(NC(=O)N2CCCC2C(=O)NCCc2ccccc2)c1 (configuration not stated) | 19.1%
CCN1CCN(Cc2ccc(NC(=O)Nc3ccccc3)cc2)CC1 | 0.7%
O=C(/C=C/c1ccco1)Nc1ccc(N2CCCC2)cc1 | 5.9%
COc1ccc(CNC(=O)CCn2nc(C)c3c(C)n(-c4ccccc4)nc3c2=O)cc1OC | 11.8%
COc1ccc(CCNS(=O)(=O)c2ccccc2)cc1OC | -11.4%
Fc1cc(F)c(F)c(SCCc2ccncc2)c1F | 50.1µM*
Cc1cc(C)cc(OCCCn2c(CCNC(=O)C3CCCCC3)nc3ccccc32)c1 | -7.2%
Cn1c(=O)c2c(ncn2CC(=O)OCc2ccccc2)n(C)c1=O | 0.0%
CC/C(=N/NC(=O)c1ccc2c(c1)OCO2)c1ccccc1O | 12.5%
CNC(=O)c1cccc(N2CCCC2=O)c1 | -0.8%
Cc1onc(-c2ccccc2)c1C(=O)NCc1ccccn1 | 7.4%
O=C(c1cc(-c2ccccc2O)on1)N1CCCC1 | -0.3%
CCC(=O)N1CCN(c2cc(NCC3CCCO3)c(F)cc2[N+](=O)[O-])CC1 (configuration not stated) | -1.9%
CCn1nnc(-c2ccccc2NC(=O)c2cc(OC)cc(OC)c2)n1 | -4.7%
CSCCC(NC(=O)c1ccccc1Cl)C(=O)NNC(=O)c1ccccc1O (configuration not stated) | 3.6%
COc1ccc(N(Cc2cc3cccc(C)c3[nH]c2=O)C(=O)c2cccc(Cl)c2)cc1 | -3.2%
CCN1C(=O)[C@@H]2[C@H](C1=O)[C@@H]1C(=O)Nc3ccccc3C(=O)N1[C@@H]2c1cccc(C)c1 | -19.5%
O=C(CSc1nc2ccccc2c(=O)[nH]1)Nc1ccccc1N1CCOCC1 | -0.6%
CCN(Cc1ccccc1)S(=O)(=O)CCNC(=O)c1ccc(OC)cc1 | -7.3%
Cc1[nH]c2ccccc2c1C(O)CN1CCN(c2cccc(C(F)(F)F)c2)CC1 (configuration not stated) | -10.9%
COc1ccc(N(CC(=O)NC2CCCCC2)S(=O)(=O)c2cccs2)cc1 | 0.8%

Next compounds follow.
SMILES | VDR inhibitor
COc1cc(NC(=O)C2CCCO2)c(C(=O)O)cc1OC (configuration not stated) | 13.5%
Cc1cc(C(=O)COC(=O)/C=C/c2ccco2)c(C)n1C | -14.8%
O=C(CSc1nnc(COc2ccc(Cl)cc2)o1)Nc1ccc(N2CCOCC2)cc1 | -18.2%
COc1ccc(NC(=O)COC(=O)Cc2cccs2)cc1OC | -2.7%
CCOc1ccccc1CNCCO | -4.3%
C=CCN(CC=C)C(=O)CCc1nnc(CCc2c[nH]c3ccccc23)o1 | 9.2%
O=C(NC1CCN(Cc2ccccc2)CC1)C1CCN(c2nnc(-n3cccc3)s2)CC1 | 6.8%
CC/C(C)=N/Nc1cccc([N+](=O)[O-])c1 | -11.9%
CCOC(=O)C1CCN(CC(O)COCc2ccccc2)CC1 (configuration not stated) | -6.0%
O=C(Nc1cccc(C(F)(F)F)c1)C(Sc1cccc[n+]1[O-])c1ccccc1 (configuration not stated) | -20.6%
O=C1CN(C(=O)COc2ccccc2)CCN1 | 13.6%
COc1cccc(C2C(C#N)=C(N)N(N(C)C)C3=C2C(=O)CCC3)c1OC (configuration not stated) | -7.6%
COCCOC1CCN(C(=O)C2CCC(=O)N(CCc3cccc(F)c3)C2)CC1 (configuration not stated) | -10.4%
COc1ccc(N2CCN(C(=O)c3cc(S(=O)(=O)N4CCCCCC4)ccc3OC)CC2)cc1 | -2.4%
CCOC(=O)C1CCCN(C(=O)c2nn(-c3ccc(C)cc3)c(=O)c3c2c2ccccc2n3C)C1 (configuration not stated) | -22.2%
O=[N+]([O-])c1cccc(S(=O)(=O)NCC2CCCO2)c1 (configuration not stated) | -11.8%
CC(c1cccnc1)N(CCN(C)C)C(=O)Nc1ccc(Cl)c(Cl)c1 (configuration not stated) | -7.0%
Cc1cccc(CC2S/C(=N/c3cccc(C)n3)NC2=O)c1 (configuration not stated) | 0.5%
CCc1ccc(NC(=O)CN2C(=O)CCSc3ccccc32)cc1 | -10.6%
COc1ccc(NC(=O)c2cccc(N3CCCS3(=O)=O)c2)cc1OC | -1.0%
COc1ccccc1NC(=O)c1ccc(COc2ccccc2OC)o1 | 5.0%
O=C(NCc1ccc(F)cc1)C1CCCN(S(=O)(=O)c2cccc3nonc23)C1 (configuration not stated) | -0.2%
CCOC(=O)C(C(=O)NCC1CCCO1)C1CCCCC1 (configuration not stated) | 0.1%
COC(=O)c1cc2sccc2n1CC(=O)N(C)c1ccccc1 | 8.2%
CC(=O)c1cccc(OCc2cc(C(=O)NC(C)Cc3cccnc3)no2)c1 (configuration not stated) | -13.9%
CCOc1cc(/C=C/C(=O)Nc2ccc(C(=O)NCCN(CC)CC)cc2)ccc1OCC(C)C | 4.8%
Cc1ccc(/C=C/C(=O)OCC(=O)NC(C)c2ccccc2)o1 (configuration not stated) | -11.9%
Cc1cccc(NC(=O)c2ccc3[nH]c(C)cc(=O)c3c2)c1 | 2.7%
CCOC(=O)c1c(C)[nH]c(C)c1S(=O)(=O)N1CCCC(C(=O)N2CCN(c3cccc(Cl)c3)CC2)C1 (configuration not stated) | 10.4%
COc1ccccc1OCCC(=O)OCC(=O)c1[nH]c(C)c(C(C)=O)c1C | 7.2%
CCOC(=O)CON1C(=O)C(=O)N(OCC(=O)OCC)C2CCCCC21 (configuration not stated) | -4.0%
COc1ccc(-c2cc(C)no2)cc1S(=O)(=O)N1CCN(c2ccc(C(C)=O)cc2)CC1 | 10.8%

Source: PubChem BioAssay
